Source: PubChem BioAssay
RN4220 kill – growth inhibition of S. aureus RN4220, primary screen, OD600. 330,000 compounds, 0.33% hits. inhibition, % (test concentration not listed). AID 1259311, 2017. 16 h;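 active = z-score of -3 or lower and OD600 up to 0.18 on both plates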;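 note: plate controls were untreated cells for no effect and reference antibiotic for full effect; stock transfer was 100 nL into about 80 µL; one replicate is shown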
BJeLR viability – MLPCN primary cell-based screen for lethality selective to Ras in HRASV12 cells; BJeLR (HRASV12) viability, CellTiter-Glo ATP luminescence, 48 h; reference of the scale not given here; inhibition, % (no concentration beside the values); 300,000 compounds, 0.17% hits; AID 1554, 2009;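 active = replicate mean above 50%; inconclusive = above 50% but judged a plate artefact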;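 note: 50 nL library stock added to about 25 µL; numbers are from one replicate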
Sa ugtP lethal – growth inhibition of ugtP-null S. aureus, primary screen, RN4220 ugtP deletion, OD600; 16 h; some inactives read as strong as hits; growth inhibition, % (no concentration beside the values); 330,000 compounds, 0.54% hits; AID 1259309, 2017;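 active = z-score under -3 and OD600 up to 0.15 on both plates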;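 note: plate controls were untreated wells for no effect and antibiotic for full effect; wells of about 80 µL received 100 nL stock; the first replicate is given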
Mtb hypoxia rep – PubChem AID 1159583. M. tuberculosis hypoxia-regulated fluorescent reporter, fluorescence. fluorescence inhibition, % (no concentration beside the values). 300,000 compounds, 0.1% hits;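 active = 35 to 45% if threefold the growth effect, above 45% if 1.5-fold the growth effect; inactive = the rest, general growth blockers included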;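 note: wells of about 50 µL received 100 nL stock; 0% = vehicle wells and 100% = reference inhibitor wells; whole bacteria with a GFP reporter of the hypoxia response; strong numbers were not always called active; many hits fall short of the cut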
Autofluor counter – compound fluorescence in toxin protease inhibitor counterscreen. fluorescence intensity (test concentration not listed). compound autofluorescence counterscreen, microsphere flow cytometry; stronger effect = higher value. 360,000 compounds, 3.1% hits;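 active = at least 3 SD above the mean of all compounds, about 16000 in these data; inconclusive = too few beads counted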;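 note: 100 nL of 1 mM stock went into each well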
PrP UTR inh – inhibition of PrP 5' UTR reporter expression | 340,000 compounds, 0.35% hits | inhibition, % (concentration not given with the values) | cell-based PrP 5' UTR mRNA reporter, plate reader | AID 488862, 2010;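 active = every replicate at 50% or more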;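 note: 0 = median of the neutral control wells; tested in H4 reporter cells; numbers are from one replicate; inactives centre near -14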
Mtb hypoxia rep growth – second read-out of Mtb hypoxia rep, no call of its own (marks repeat the call); growth inhibition, %; measured here: M. tuberculosis growth (absorbance);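 0% = vehicle and 100% = reference antibiotic; read after six days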
Numbers without * were called inactive; & = joins results of further samples.

For Cc1cc(C)c(-c2cc(NC(=O)CSc3n[nH]c(N)n3)n(-c3ccccc3)n2)cc1C the results were RN4220 kill -27, BJeLR viability -9, Sa ugtP lethal 5, Mtb hypoxia rep 4, Autofluor counter inconclusive, PrP UTR inh -14 and Mtb hypoxia rep growth 6.
C#CC(C)(C)NC(=S)NC1CC2C=CC1C2 (stereo not drawn) was read as RN4220 kill 3.5, BJeLR viability -5, Sa ugtP lethal 5, Mtb hypoxia rep -26, Autofluor counter 6143, PrP UTR inh -24 and Mtb hypoxia rep growth -5.
CCOC(=O)N1CCC2(CC1)C(C#N)=C(N)Oc1n[nH]c(CSc3ccc(C)cc3)c12 was read as RN4220 kill 1.7, BJeLR viability 0, Sa ugtP lethal 5, Autofluor counter 4381 and PrP UTR inh -32.
O=C(NCC(c1ccco1)N1CCCC1)c1cccc(S(=O)(=O)N2CCOCC2)c1 (stereo not drawn) was read as RN4220 kill 0.1, Sa ugtP lethal 1, Mtb hypoxia rep 24, Autofluor counter 3093, PrP UTR inh -16 and Mtb hypoxia rep growth 9.
For COc1ccccc1C(=O)NCCCN1CCCC1=O the results were RN4220 kill 0.7, BJeLR viability -17, Sa ugtP lethal -1, Mtb hypoxia rep 7, Autofluor counter 20201*, PrP UTR inh -21 and Mtb hypoxia rep growth -2.
Cc1nnc2sc(SCC(=O)N3CCc4ccccc43)nn2c1=O was read as RN4220 kill 2.8, Sa ugtP lethal 17, Mtb hypoxia rep 5, Autofluor counter 4148, PrP UTR inh -6 and Mtb hypoxia rep growth 11.
For Cc1ccc(-c2nn(CCC(=O)NC(C)C)c(=O)c3ccccc23)cc1 the results were RN4220 kill 1.5, BJeLR viability -7, Sa ugtP lethal 14, Mtb hypoxia rep 6, Autofluor counter 2971, PrP UTR inh -10 and Mtb hypoxia rep growth 7.
Screening CCc1noc(C)c1C(=O)NNC(=O)COc1ccc(C)c(C)c1 returned RN4220 kill 0.7, BJeLR viability -9, Sa ugtP lethal -4, Mtb hypoxia rep -5, Autofluor counter 4049, PrP UTR inh 9 and Mtb hypoxia rep growth -4.
Screening O=C(NCc1csc(-c2cccs2)n1)Nc1cccc(Cl)c1 returned RN4220 kill -0.3, BJeLR viability 3, Sa ugtP lethal -16, Mtb hypoxia rep 0, Autofluor counter 3818, PrP UTR inh -20 and Mtb hypoxia rep growth -5.
`O=C(N/N=C/c1ccco1)c1cc(C2CC2)[nH]n1` gave BJeLR viability -6, Autofluor counter 3777 and PrP UTR inh -49.
For COc1cc(NC(=O)c2ccco2)ccc1NC(=O)C(C)C the results were RN4220 kill 4.7, BJeLR viability -1, Sa ugtP lethal 4, Mtb hypoxia rep 7, Autofluor counter 21437*, PrP UTR inh -19 and Mtb hypoxia rep growth 6.
`COC(=O)C(NC(=O)c1cccnc1Cl)C(C)C` (stereo not drawn) gave RN4220 kill 2.7, BJeLR viability 13, Sa ugtP lethal 5, Mtb hypoxia rep 12, Autofluor counter 4437, PrP UTR inh -32 and Mtb hypoxia rep growth 6.
Screening COc1ccc(NC(=O)Nc2ccc(F)c(Cl)c2)cc1 returned RN4220 kill -1.4, BJeLR viability 6, Sa ugtP lethal 20, Mtb hypoxia rep 2, Autofluor counter 2485, PrP UTR inh -34 and Mtb hypoxia rep growth -4.
CCCNC(=O)C1CCN(c2nc(C)cc(C)n2)CC1 was read as RN4220 kill -3.1, BJeLR viability -1, Sa ugtP lethal 4, Autofluor counter 4400 and PrP UTR inh -16.
Cc1c(S(=O)(=O)Nc2ccc3c(c2)OCCO3)cnn1C was read as RN4220 kill 0.9, BJeLR viability -2, Sa ugtP lethal 3, Mtb hypoxia rep 0, Autofluor counter 3672, PrP UTR inh -14 and Mtb hypoxia rep growth -9.
Screening Cc1cccc(C=NNC(=O)c2ccc(NC(=O)c3ccc(Cl)cc3)cc2)n1 returned RN4220 kill 7.8, Sa ugtP lethal 7, Mtb hypoxia rep 2 and Mtb hypoxia rep growth 2.
Screening COc1cc(NC(=O)c2cccs2)ccc1NC(=O)c1cc2ccccc2o1 returned RN4220 kill 5.2, BJeLR viability 3, Sa ugtP lethal 0, Mtb hypoxia rep 9, Autofluor counter 4276, PrP UTR inh -23 and Mtb hypoxia rep growth 9.
For CCN(CC)CCNC(=O)CNC(=O)c1nn(-c2ccc(OC)c(OC)c2)c(=O)c2ccccc12 the results were RN4220 kill 1.4, BJeLR viability -6, Sa ugtP lethal 6, Mtb hypoxia rep 12, Autofluor counter 3319, PrP UTR inh -15 and Mtb hypoxia rep growth 9.
`O=C(c1ccccc1NS(=O)(=O)c1cccs1)N1CCCC1` gave RN4220 kill 5.6, BJeLR viability -5, Sa ugtP lethal 3, Mtb hypoxia rep 1, Autofluor counter 9914, PrP UTR inh 4 and Mtb hypoxia rep growth 1.
`O=C(Nc1nnc(C2CC2)s1)c1cc(Cl)sc1Cl` gave RN4220 kill 3.1, BJeLR viability 2, Sa ugtP lethal 1, Mtb hypoxia rep 1, Autofluor counter 5420, PrP UTR inh -21 and Mtb hypoxia rep growth 0.
`COc1ccc(NC(=S)Nc2ccccc2)cc1` gave RN4220 kill 1.4&1.9, BJeLR viability -2&5, Sa ugtP lethal 10&4, Mtb hypoxia rep 16&5, Autofluor counter 3532&3770, PrP UTR inh -25&-15 and Mtb hypoxia rep growth 10&19.
Screening Cc1nc(N2CCOCC2)nc(N2CCC(C)CC2)c1[N+](=O)[O-] returned RN4220 kill -1.4, BJeLR viability -6, Sa ugtP lethal 15, Mtb hypoxia rep -5, Autofluor counter 4308, PrP UTR inh 7 and Mtb hypoxia rep growth 1.
COc1ccccc1OC(=O)CCN1c2ccccc2Sc2ccccc21 was read as RN4220 kill -4.4, BJeLR viability 3, Sa ugtP lethal 1, Mtb hypoxia rep -2, Autofluor counter 2097, PrP UTR inh -5 and Mtb hypoxia rep growth -5.
For NC(=O)c1cc(Cc2ccccc2)sc1NC(=O)c1ccco1 the results were RN4220 kill 1.8, BJeLR viability -1, Sa ugtP lethal -19, Mtb hypoxia rep 7, Autofluor counter 11100, PrP UTR inh -67 and Mtb hypoxia rep growth 14.
`COc1ccc(CNC(=O)COC(=O)CCC(=O)c2cccs2)cc1` gave RN4220 kill 2.9, BJeLR viability 5, Sa ugtP lethal 0, Mtb hypoxia rep 1, Autofluor counter 4979, PrP UTR inh -7 and Mtb hypoxia rep growth -4.
Screening Cc1ccc(-c2nnc(SCC#CCOC(=O)c3cccs3)o2)cc1 returned RN4220 kill 11, BJeLR viability -15, Sa ugtP lethal 7, Mtb hypoxia rep 16, Autofluor counter 9190, PrP UTR inh -26 and Mtb hypoxia rep growth 19.
Screening Cc1noc(C)c1CSCC(=O)Nc1nc2ccc(S(C)(=O)=O)cc2s1 returned RN4220 kill 1.8, BJeLR viability -7, Sa ugtP lethal 1, Mtb hypoxia rep -2, Autofluor counter inconclusive, PrP UTR inh -19 and Mtb hypoxia rep growth 3.
COc1ccc(-n2ncc(N(C)n3cccc3)c(Cl)c2=O)cc1 was read as RN4220 kill -1.6, BJeLR viability 9, Sa ugtP lethal -6, Autofluor counter 2739 and PrP UTR inh -114.
Screening CC(C)C[C@H](NC(=O)c1[nH]cnc1C(=O)N[C@@H](C)C(=O)OCc1ccccc1)C(=O)OC(C)(C)C returned BJeLR viability 7, Autofluor counter 4009 and PrP UTR inh -2.
O=C(CCN1C(=O)COc2ccccc21)NCCN1CCc2ccccc2C1 was read as RN4220 kill -0.1, BJeLR viability -4, Sa ugtP lethal 2, Mtb hypoxia rep 5, Autofluor counter 11157, PrP UTR inh -7 and Mtb hypoxia rep growth 6.

In the list so far, 5 have a furan ring, fused or not:
O=C(NCC(c1ccco1)N1CCCC1)c1cccc(S(=O)(=O)N2CCOCC2)c1 (stereo not drawn) was read as RN4220 kill 0.1, Sa ugtP lethal 1, Mtb hypoxia rep 24, Autofluor counter 3093, PrP UTR inh -16 and Mtb hypoxia rep growth 9.
`O=C(N/N=C/c1ccco1)c1cc(C2CC2)[nH]n1` gave BJeLR viability -6, Autofluor counter 3777 and PrP UTR inh -49.
For COc1cc(NC(=O)c2ccco2)ccc1NC(=O)C(C)C the results were RN4220 kill 4.7, BJeLR viability -1, Sa ugtP lethal 4, Mtb hypoxia rep 7, Autofluor counter 21437*, PrP UTR inh -19 and Mtb hypoxia rep growth 6.
Screening COc1cc(NC(=O)c2cccs2)ccc1NC(=O)c1cc2ccccc2o1 returned RN4220 kill 5.2, BJeLR viability 3, Sa ugtP lethal 0, Mtb hypoxia rep 9, Autofluor counter 4276, PrP UTR inh -23 and Mtb hypoxia rep growth 9.
For NC(=O)c1cc(Cc2ccccc2)sc1NC(=O)c1ccco1 the results were RN4220 kill 1.8, BJeLR viability -1, Sa ugtP lethal -19, Mtb hypoxia rep 7, Autofluor counter 11100, PrP UTR inh -67 and Mtb hypoxia rep growth 14.

The list goes on.
For Cc1ccccc1NC(=O)COC(=O)CN1C(=O)NC(C)(C)C1=O the results were RN4220 kill 1.9, BJeLR viability -3, Sa ugtP lethal 4, Mtb hypoxia rep 1, Autofluor counter 4629, PrP UTR inh -31 and Mtb hypoxia rep growth 5.
For COc1ccc(OC)c(CC(=O)NC(c2ccccc2)c2ccccc2)c1 the results were RN4220 kill 4.7, BJeLR viability 7, Sa ugtP lethal 4, Mtb hypoxia rep 2, Autofluor counter 3133, PrP UTR inh 9 and Mtb hypoxia rep growth -3.
For COc1ccc(OC)c(C=NNC(=O)CNC(=O)c2cccc3ccccc23)c1 the results were RN4220 kill 3.8, Sa ugtP lethal -1, Mtb hypoxia rep 8 and Mtb hypoxia rep growth 3.
`CNC(=O)/C(C#N)=C\c1ccc(CNS(=O)(=O)c2ccccc2)o1` gave RN4220 kill 3.9, BJeLR viability -15, Sa ugtP lethal 9, Mtb hypoxia rep 12, Autofluor counter 2562, PrP UTR inh -36 and Mtb hypoxia rep growth 3.
For COc1ccc(N2CCN(CC(=O)N3c4ccccc4CC3C)CC2)cc1 (stereo not drawn) the results were RN4220 kill 7.4, BJeLR viability -5, Sa ugtP lethal 4, Mtb hypoxia rep 14, Autofluor counter 3810, PrP UTR inh -16 and Mtb hypoxia rep growth 9.
For O=C(CN1C(=O)S/C(=C\c2ccc(F)cc2)C1=O)NC1C=CS(=O)(=O)C1 (stereo not drawn) the results were RN4220 kill 5.8, BJeLR viability 11, Sa ugtP lethal 8, Mtb hypoxia rep 8, Autofluor counter 4769, PrP UTR inh -11 and Mtb hypoxia rep growth 1.
Screening Cc1ccc(NC(=O)COc2cccnc2[N+](=O)[O-])cc1S(=O)(=O)N1CCCCC1 returned RN4220 kill 1.5, BJeLR viability 8, Sa ugtP lethal -3, Mtb hypoxia rep 6, Autofluor counter 2787, PrP UTR inh -17 and Mtb hypoxia rep growth 6.
For CSc1ccc(C=CC(=O)c2ccc(NC(C)=O)cc2)cc1 the results were RN4220 kill 7.5, Sa ugtP lethal -3, Mtb hypoxia rep 4 and Mtb hypoxia rep growth 6.
`Cc1ccc(NC(=O)C2CCCN(S(=O)(=O)c3cccc4cccnc34)C2)cc1` (stereo not drawn) gave RN4220 kill -0.6, BJeLR viability 3, Sa ugtP lethal 2, Mtb hypoxia rep 3, Autofluor counter 5597, PrP UTR inh 5 and Mtb hypoxia rep growth 3.
For CC(C)c1ccc(NC2CCCN(C(=O)CCn3cnnn3)C2)cc1 (stereo not drawn) the results were RN4220 kill 2.0, BJeLR viability 1, Sa ugtP lethal 9, Mtb hypoxia rep -2, Autofluor counter 3992, PrP UTR inh -6 and Mtb hypoxia rep growth -4.
Screening Cc1nn(-c2ccc(F)cc2)c(Cl)c1/C=C/C(=O)OCC(=O)Nc1ccc(F)cc1F returned RN4220 kill 4.5, BJeLR viability -4, Sa ugtP lethal -2, Mtb hypoxia rep 4, Autofluor counter 2555, PrP UTR inh -13 and Mtb hypoxia rep growth 0.
Screening COc1cccc(C(=O)Nc2ccc(NC(C)=O)cc2)c1 returned RN4220 kill 5.0, BJeLR viability 6, Sa ugtP lethal 4, Mtb hypoxia rep 2, Autofluor counter 22073*, PrP UTR inh -14 and Mtb hypoxia rep growth 4.
Screening CC(=O)Cc1nsc(NC(=O)c2c(-c3ccccc3Cl)noc2C)n1 returned RN4220 kill 0.4, BJeLR viability -13, Sa ugtP lethal 3, Mtb hypoxia rep 5, Autofluor counter 9747, PrP UTR inh -88 and Mtb hypoxia rep growth -6.
